Six1-Eya2 inh – blocks human Six1 binding to Eya2. 360,000 compounds, 0.56% hits. AlphaScreen GST-Six1/His-Eya2 binding, biochemical; hits give low values; control for the full effect not named in the record. activity change, % (test concentration not listed). Q15475+O00167. AID 651725; in the data active = activity change below about -65%; inconclusive = about -30% to -65%; inactive = above about -30%; further: on the % scale 0 is the no-effect control and ±100 the full control effect
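Six1/Eya2 binding was read as AlphaScreen signal after compounds were pinned into GST-Six1 plus His-tagged Eya2 (5X stock 250/500 nM) in pH 8.0 Tris/NaCl/TCEP buffer, beads added, then incubated 1 h, 37 C, dark.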
TRPML1 blocker – human mucolipin-1 channel inhibition. Q9GZU1. activity change, negative = inhibition, % (concentration not given with the values). 390,000 compounds, 0.02% hits. TRPML1-inducible cells, Ca2+ dye fluorescence, FDSS; hits give low values; inhibition of EC80 agonist-evoked calcium signal; in the data active means activity change below about -50%; inconclusive means about -30% to -50%; inactive means above about -30%;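 further: stimulus is agonist 54-4 at its EC80 concentration; on the % scale 0 is the no-effect control and ±100 the full control effect; the text of the record puts the active cut at -80%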
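TRPML1-DL cells, Tet-induced overnight (~16 h, 37 °C) at 1,500 cells/well, were loaded with Ca8 no-wash dye plus quencher for 45-90 min at room temperature. Compounds were pinned during FDSS kinetic reading; agonist 54-4 at EC80 (4 uM final) then added.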
D2 PAM – positive allosteric modulators of human D2 dopamine receptor; DiscoveRx D2 beta-arrestin cells, luminescence, 90 min; 100% = 57 uM dopamine signal; potentiation, % (no concentration beside the values); 360,000 compounds, 0.23% hits; AID 624464; active = potentiation of 50% or more; inconclusive = 30% to 50%; inactive = 30% or less;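 further: compound concentration not given in the record; tested on top of an EC20 dose of dopamine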
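PathHunter beta-arrestin assay in DiscoveRx D2 cells. Compounds were added with an EC20 of dopamine (50 nM final) for 90 min at 37 deg C. Luminescence was read 1 h after detection reagent, with 57 uM dopamine as the EC100 control.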
TRPV1 potentiator – potentiators of human vanilloid receptor 1 (TRPV1). Q8NER1. TRPV1-expressing cells, Fluo-8 calcium influx, capsaicin EC20 potentiation; host cell line not named in the record; control for the full effect not named in the record. potentiation, % at 8.33 µM. 320,000 compounds, 0.02% hits; active means potentiation above 80%; inconclusive means 30% to 80%; inactive means below 30%; further: 0% is about no effect
Target sequence (Q8NER1 whole entry, looked up): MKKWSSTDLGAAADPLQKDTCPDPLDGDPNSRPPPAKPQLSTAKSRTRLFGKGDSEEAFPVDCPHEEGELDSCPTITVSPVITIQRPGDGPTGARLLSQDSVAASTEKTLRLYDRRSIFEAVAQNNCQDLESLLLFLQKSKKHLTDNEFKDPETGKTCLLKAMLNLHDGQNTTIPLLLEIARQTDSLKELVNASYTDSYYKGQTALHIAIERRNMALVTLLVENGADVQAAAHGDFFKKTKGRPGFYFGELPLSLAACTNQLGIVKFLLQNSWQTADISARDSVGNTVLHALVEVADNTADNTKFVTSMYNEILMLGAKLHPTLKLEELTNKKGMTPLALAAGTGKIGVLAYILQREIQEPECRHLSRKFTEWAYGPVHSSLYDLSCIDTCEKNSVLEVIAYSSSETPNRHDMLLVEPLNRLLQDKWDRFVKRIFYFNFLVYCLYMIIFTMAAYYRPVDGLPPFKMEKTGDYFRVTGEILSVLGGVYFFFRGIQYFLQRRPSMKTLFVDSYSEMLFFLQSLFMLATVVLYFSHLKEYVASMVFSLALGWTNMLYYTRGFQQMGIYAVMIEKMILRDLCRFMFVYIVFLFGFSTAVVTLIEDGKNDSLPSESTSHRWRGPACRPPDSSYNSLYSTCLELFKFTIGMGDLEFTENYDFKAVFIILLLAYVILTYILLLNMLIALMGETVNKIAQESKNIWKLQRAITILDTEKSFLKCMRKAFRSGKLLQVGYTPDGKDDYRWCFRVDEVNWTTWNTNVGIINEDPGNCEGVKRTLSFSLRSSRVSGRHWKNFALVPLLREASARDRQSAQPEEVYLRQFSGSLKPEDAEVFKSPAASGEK
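TRPV1-expressing cells were cultured overnight at 35.5C and loaded with Fluo-8 calcium dye for 40 to 90 min at room temperature. After a 10 s baseline, compound was added and calcium influx was read kinetically for 3 min (ex 480/em 520 nm).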
CtBP-E1A blk – inhibitors of CtBP/E1A interaction; AlphaScreen GST-E1A/His-CtBP binding, 1536-well; hits give low values; control for the full effect not named in the record; activity change, % (concentration not given with the values); 340,000 compounds, 0.49% hits; AID 651724; in the data active means activity change below about -65%; inconclusive means about -30% to -65%; inactive means above about -30%; further: on the % scale 0 is the no-effect control and ±100 the full control effect
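Steps: dispense buffer (Tris pH 8.0, NaCl 300 mM, TCEP 1 mM, BSA, Tween 20); add 5X protein mix (GST-E1A, His-CtBP, 125 nM each); pin 23 nL compound; 2 h at 37 °C, dark; add 5X beads (50 ug/mL); 1 h; read.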
TRPML1 agonist – agonists of human TRPML1 channel. 410,000 compounds, 0.12% hits. activation, % (no concentration beside the values). TRPML1-expressing cells, Ca2+ dye fluorescence, FDSS; host cell line not named in the record; reference of the full effect not given here. Q9GZU1. AID 624414; in the data active = activation above about 50%; inconclusive = about 30% to 50%; inactive = below about 30%; further: 0% is about no effect; the text of the record puts the active cut at 80%
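Tetracycline-induced TRPML1-DL cells are seeded and incubated overnight before loading with a no-wash Ca2+ dye and quencher. Agonist activity is taken from the 110 s fluorescence read following compound pin-transfer on an FDSS, before EC80 54-4 challenge.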
* hit, by the source's call; ? = inconclusive; . = not tested or not shown. No enrichment for hits, and some 0.95% of all compounds hit somewhere here.

1) COc1ccc(C(=O)Nc2ccccc2)cc1NC(=O)c1ccc([N+](=O)[O-])cc1
2) C[C@@H]1CN([C@H](C)CO)C(=O)c2cc(Br)cnc2O[C@@H]1CN(C)C(=O)CC1CC1
3) COCCn1cc(-c2csc(N)n2)c2ccccc21
4) O=c1nc(N/N=C/c2ccccn2)cn[nH]1
5) COCCCNC(CC(=O)Nc1ccc(OC)cc1OC)C(=O)O (stereo not drawn)
Assay by compound	1	2	3	4	5
Six1-Eya2 inh	-17	1	19	-91*	0
TRPML1 blocker	-7	7	.	-5	-15
D2 PAM	-7	4	-22	1	-3
TRPV1 potentiator	-1	.	7	-10	9
CtBP-E1A blk	-20	5	.	-91*	6
TRPML1 agonist	-0.2	-0.4	.	0.2	1.1

6) CC(C)(C)NS(=O)(=O)c1ccc(/C=C/C(=O)O)cc1
7) CNC(=O)COC(=O)CCC(=O)c1ccc(Cl)cc1
8) O=[N+]([O-])c1ccc(CCNc2cccc3ccccc23)c([N+](=O)[O-])c1
9) COc1ccccc1NC(=O)CN1C(=O)COc2ccc(C)cc21
10) COCCN(C(=O)COC(=O)/C=C/c1cccc(OC)c1)c1c(N)n(CC(C)C)c(=O)[nH]c1=O
Assay by compound	6	7	8	9	10
Six1-Eya2 inh	7	8	-3	9	-4
TRPML1 blocker	-3	-14	9	-6	-8
D2 PAM	-5	-3	27	-4	-13
TRPV1 potentiator	-4	12	10	-6	8
CtBP-E1A blk	6	-8	-1	6	-3
TRPML1 agonist	-0.8	-0.3	0.6	0.6	-0.3

11) OCCNc1ncnc2c1cnn2Cc1ccccc1
12) COc1cc(CNCCCO)ccc1OCC(=O)NC(C)(C)C
13) CCSc1nnc(SCC(=O)Nc2cc(C)on2)s1
14) COc1ccccc1NC(=S)N1CCOCC1
15) COC(C[C@H]1O[C@H]1C(=O)COCc1ccccc1)OC
Assay by compound	11	12	13	14	15
Six1-Eya2 inh	-8	16	-5	2	9
TRPML1 blocker	42	-26	-5	8	-3
D2 PAM	-13	-6	-7	-5	-7
TRPV1 potentiator	1	-2	.	-4	-23
CtBP-E1A blk	0	13	-24	0	-21
TRPML1 agonist	0.5	-0.2	-0.4	0.0	-0.2

Record cards (already shown). Values in the order: Six1-Eya2 inh, TRPML1 blocker, D2 PAM, TRPV1 potentiator, CtBP-E1A blk, TRPML1 agonist
Listed for `COC(C[C@H]1O[C@H]1C(=O)COCc1ccccc1)OC` = 9, -3, -7, -23, -21, -0.2
Listed for `O=c1nc(N/N=C/c2ccccn2)cn[nH]1` = -91*, -5, 1, -10, -91*, 0.2
Listed for `COc1ccccc1NC(=O)CN1C(=O)COc2ccc(C)cc21` = 9, -6, -4, -6, 6, 0.6
Listed for `COc1cc(CNCCCO)ccc1OCC(=O)NC(C)(C)C` = 16, -26, -6, -2, 13, -0.2
Listed for `COCCN(C(=O)COC(=O)/C=C/c1cccc(OC)c1)c1c(N)n(CC(C)C)c(=O)[nH]c1=O` = -4, -8, -13, 8, -3, -0.3

Additional entries
16) CCOc1ccc(Nc2ncnc3c2cnn3Cc2ccccc2)cc1
17) O=C(O)c1cc2cc(Cl)ccc2[nH]1
18) CCO[C@@H]1OC(C(N)=O)=C[C@H](C2CC2)[C@H]1CCCO
19) COc1ccc(NS(=O)(=O)c2cc(NC(=O)c3ccncc3)ccc2N2CCOCC2)cc1
20) O=C(CCS(=O)(=O)c1ccccc1)Nc1cccc2c1C(=O)NC2=O
Assay by compound	16	17	18	19	20
Six1-Eya2 inh	-4	-1	1	-19	2
TRPML1 blocker	23	-8	-2	-7	14
D2 PAM	1	-9	-3	-2	-2
TRPV1 potentiator	-7	.	.	-10	-1
CtBP-E1A blk	-11	4	7	-11	4
TRPML1 agonist	6.5	-0.1	0.2	0.5	-0.2

21) O=C(CCC(=O)OCC(=O)c1ccccc1)Nc1cccc(Cl)c1
22) CCC(NC(=O)Nc1ccc(O)cc1)(C(F)(F)F)C(F)(F)F
23) O=C(NCCC(=O)N1CCCCCCC1)c1ccc(Br)cc1
24) CCCOC(=O)C1=C(C)NC2=C(C(=O)CCC2)C1c1cccs1 (stereo not drawn)
25) O=S(=O)(Nc1ccccc1)c1ccc(Oc2ncc(C(F)(F)F)cc2Cl)cc1
Assay by compound	21	22	23	24	25
Six1-Eya2 inh	4	-7	5	4	0
TRPML1 blocker	-3	4	2	-3	3
D2 PAM	-8	30	-3	-10	11
TRPV1 potentiator	8	-3	-12	2	-9
CtBP-E1A blk	8	-4	12	0	11
TRPML1 agonist	-0.7	-1.1	-0.4	0.5	6.6

The last 3 records of the part before open the next one:
23) O=C(NCCC(=O)N1CCCCCCC1)c1ccc(Br)cc1
24) CCCOC(=O)C1=C(C)NC2=C(C(=O)CCC2)C1c1cccs1 (stereo not drawn)
25) O=S(=O)(Nc1ccccc1)c1ccc(Oc2ncc(C(F)(F)F)cc2Cl)cc1
26) CC[C@@H]1C/C=C\Cc2ccccc2[C@@H](C(=O)C[C@H](O)CC(C)=O)OC1=O
27) N#CNc1nc(O)cc(=O)[nH]1
28) COc1nc2ccccc2nc1CCC(=O)O
29) COc1cccc(NC(=O)NCCCCc2ccccc2)c1
30) C=CCNC(=S)NCCCCC1NC(=S)N(CC=C)C1=O (stereo not drawn)
Assay by compound	23	24	25	26	27	28	29	30
Six1-Eya2 inh	5	4	0	-3	-11	12	-5	15
TRPML1 blocker	2	-3	3	-12	11	23	88	-2
D2 PAM	-3	-10	11	.	-2	-2	-12	-23
TRPV1 potentiator	-12	2	-9	.	-5	-5	-2	1
CtBP-E1A blk	12	0	11	8	-4	5	27	7
TRPML1 agonist	-0.4	0.5	6.6	0.0	0.1	0.2	0.4	-0.1

31) O=C(CCn1c(=S)oc2ccccc21)NC1CCCCCC1
32) Fc1ccccc1CNC(=S)NC1CCCCC1
33) COc1ccc(NC(=S)N2CCN(S(=O)(=O)c3ccc(F)cc3)CC2)cc1
34) Cc1ccc(N(CC(=O)Nc2ccccc2-c2ccccc2)S(=O)(=O)c2ccccc2)cc1
35) COc1ccc(NC(=O)C2CC(=O)N(C)C(=Nc3ccc4c(c3)OCO4)S2)cc1 (stereo not drawn)
Assay by compound	31	32	33	34	35
Six1-Eya2 inh	36	3	-6	-8	-6
TRPML1 blocker	-7	-20	3	37	-15
D2 PAM	-2	-20	-7	-6	3
TRPV1 potentiator	.	-12	-10	-20	-6
CtBP-E1A blk	0	2	-1	-8	-2
TRPML1 agonist	0.2	1.7	-0.5	0.3	-0.5

Records listed so far shown as hits in CtBP-E1A blk.
nr	SMILES	Six1-Eya2 inh	TRPML1 blocker	D2 PAM	CtBP-E1A blk
4	O=c1nc(N/N=C/c2ccccn2)cn[nH]1	-91*	-5	1	-91*

Remaining list, next part:
36) O=C(NC12CC3CC(CC(C3)C1)C2)c1ccco1
37) COc1ccc(N2CC(C(=O)Nc3cc(C)ccn3)CC2=O)cc1 (stereo not drawn)
38) O=C(Nc1cnn(Cc2ccc(F)cc2)c1)c1cc2nc(-c3ccco3)cc(C(F)(F)F)n2n1
39) O=C(CSc1nc2[nH]ncc2c(=O)n1-c1ccccc1Br)NCc1ccco1
40) CCSc1nnc(NC(=O)[C@@H](NC(=O)c2cccc(C)c2)C(C)C)s1
Assay by compound	36	37	38	39	40
Six1-Eya2 inh	-8	0	5	0	9
TRPML1 blocker	10	.	-10	-2	9
D2 PAM	-9	-8	-3	-4	-36
TRPV1 potentiator	?	-5	-25	1	2
CtBP-E1A blk	-5	0	2	-1	6
TRPML1 agonist	0.7	.	0.1	-0.2	0.2

41) O=c1c2ccccc2nnn1Cc1cccc2ccccc12
42) O=C(NC(=S)NNC(=O)c1ccccc1O)c1ccc([N+](=O)[O-])cc1
43) Cc1ccc(O)c(/C=N/NC(=O)CN2CCCC2)c1
44) CN1CCN(C(=O)c2ccc3c(c2)S(=O)(=O)c2ccccc2C3=O)CC1
45) COC(=O)c1cccc(NC(=O)/C=C/c2ccc3c(c2)OCO3)c1
Assay by compound	41	42	43	44	45
Six1-Eya2 inh	12	-86*	-65*	4	-9
TRPML1 blocker	-10	-8	.	-15	4
D2 PAM	-1	-8	-44	-2	-14
TRPV1 potentiator	14	8	-4	-3	-14
CtBP-E1A blk	2	.	.	7	-14
TRPML1 agonist	6.9	0.0	.	0.4	-0.1

46) COC(=O)c1sccc1NS(=O)(=O)c1ccc(OC)cc1
47) O=C(CCCC(=O)N(c1ccc(F)cc1)C(C(=O)NC1CCCC1)c1ccc(O)cc1)Nc1ccccn1 (stereo not drawn)
48) C=CCOc1ccc(C2OC34CCCCC3C(C#N)(C#N)C2(C#N)C(=N)O4)cc1 (stereo not drawn)
49) CCN(CC)c1ccc2c(c1)oc(=O)c1c(Cl)cc(=O)oc12
50) CSc1nnc(NC(=O)c2nc(S(=O)(=O)Cc3ccccc3)ncc2Cl)s1
Assay by compound	46	47	48	49	50
Six1-Eya2 inh	-1	-9	-3	-8	-23
TRPML1 blocker	4	-8	-5	-13	10
D2 PAM	-4	-4	4	-33	-8
TRPV1 potentiator	28	5	15	-28	12
CtBP-E1A blk	4	-9	3	6	-4
TRPML1 agonist	0.5	-0.2	1.4	69*	-0.4

51) O=C(Nc1cc([N+](=O)[O-])ccc1N1CCCC1)c1ccccc1
52) CCN1CC(C)(C)N(C(=O)c2ccccc2)CC1(C)C
53) COc1ccc(OC)c(C2CC(=O)N3CN(c4cccc(Cl)c4C)CSC3=C2C#N)c1 (stereo not drawn)
54) CCOC(=O)[C@@H]1[C@H]2COc3cc(OC)ccc3[C@@H]2N2C(=O)N(c3ccccc3)C(=O)[C@@]12C
55) O=C(/C=C/c1ccc(Cl)cc1)NCCSc1ccccc1
Assay by compound	51	52	53	54	55
Six1-Eya2 inh	-5	-1	-4	1	9
TRPML1 blocker	-10	36	-1	-7	2
D2 PAM	-8	-9	-3	-13	-8
TRPV1 potentiator	-13	.	18	.	-4
CtBP-E1A blk	-18	7	1	1	7
TRPML1 agonist	0.7	-0.6	0.2	0.1	1.0

56) O=C(c1ccccc1Cl)N(Cc1ccc(Br)cc1)N1C(=O)CCCC1=O
57) Cc1ccc2nc(C3CCN(C(=O)c4ccco4)CC3)[nH]c2c1
58) Cc1nc(-c2cn[nH]c2)c2cc(C)oc2n1
59) O=C(Nc1cccc(C(F)(F)F)c1)Nc1nnc([C@@H]2C[C@H](O)[C@@H](CO)O2)s1
60) CCN1CCN(C(=O)C23CCC(C)(C(=O)C2Br)C3(C)C)CC1 (stereo not drawn)
61) COc1ccc(CC(=O)OCc2cc3ccc(C)cc3[nH]c2=O)cc1
62) CCN(CC)c1ncnc2c1ncn2[C@H]1CN(C2CCCC2)C[C@@H](CO)O1
63) O=[N+]([O-])c1cccc(COc2ccccc2CN2CCOCC2)c1
Assay by compound	56	57	58	59	60	61	62	63
Six1-Eya2 inh	2	0	-18	1	5	-2	7	-7
TRPML1 blocker	40	-5	-8	.	-5	-2	.	-8
D2 PAM	-10	-14	-6	-1	-17	-8	-16	-15
TRPV1 potentiator	24	1	19	.	?	-28	.	.
CtBP-E1A blk	-1	53	-21	3	.	-2	-9	-7
TRPML1 agonist	-0.4	-0.3	0.0	-0.2	-0.1	-0.8	0.1	-0.9

Bioassay records deposited in PubChem BioAssay by National Center for Advancing Translational Sciences (NCATS).
